Assay outcomes as filed in PubChem.
Env fusion inh = blocks HIV Env-driven cell-cell fusion. HeLa-JRFL Env/CEM21 cell fusion, luciferase. inhibition, % at 12.3 µM. 360,000 compounds, 1.1% hits. AID 651610;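 active means mean replicate inhibition score of at least 50 and every replicate individually at or above 50; inconclusive means only one of the two criteria met; inactive means mean below 50 and not all replicates reaching 50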;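 further: 0% = plate neutral controls and 100% = maraviroc near 300 nM; one replicate is shown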
PABP FP inh = blocks human PABP binding to poly(A) RNA; P11940; fluorescence polarization; inhibition, % at 35 µM; 290,000 compounds, 1% hits;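 active means 50% or more with normal probe brightness, or confirmed in later tests; inconclusive means above 50% with abnormal brightness, or retests that disagree; inactive means below 50% or failed in later tests; about a fifth of its hits are not listed in these tables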;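 further: calls also rest on retests at 20 µM and on dose response follow-up; controls were probe without protein and protein plus probe with vehicle; some compounds called inactive have numbers as strong as hits; many hits fall short of the cut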
Target sequence (P11940 whole entry, looked up): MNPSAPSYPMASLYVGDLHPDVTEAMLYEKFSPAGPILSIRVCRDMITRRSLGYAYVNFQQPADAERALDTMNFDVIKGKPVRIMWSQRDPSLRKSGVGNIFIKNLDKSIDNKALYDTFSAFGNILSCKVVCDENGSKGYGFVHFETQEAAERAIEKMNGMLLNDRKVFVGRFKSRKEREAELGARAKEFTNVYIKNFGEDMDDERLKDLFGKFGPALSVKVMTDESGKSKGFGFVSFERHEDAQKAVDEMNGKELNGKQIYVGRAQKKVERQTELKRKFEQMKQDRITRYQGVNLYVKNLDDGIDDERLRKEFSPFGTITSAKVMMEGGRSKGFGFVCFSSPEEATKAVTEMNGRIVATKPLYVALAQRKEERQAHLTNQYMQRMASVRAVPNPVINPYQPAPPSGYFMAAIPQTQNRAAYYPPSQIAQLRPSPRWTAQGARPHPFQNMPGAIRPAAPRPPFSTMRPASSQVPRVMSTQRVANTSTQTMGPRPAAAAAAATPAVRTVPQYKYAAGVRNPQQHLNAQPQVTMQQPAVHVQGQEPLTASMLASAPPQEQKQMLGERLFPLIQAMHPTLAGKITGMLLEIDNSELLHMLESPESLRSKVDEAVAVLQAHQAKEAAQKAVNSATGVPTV
CSC inhib = cancer stem cell inhibition | 300,000 compounds, 1.1% hits | cancer stem cell-like cells viability, luminescence | inhibition, % at 7.5 µM | AID 2717;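 active means mean at 75% or more and at least half the replicates too; inconclusive means mean and replicates disagree; tested in HMLE shEcad cells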;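 further: 0% = median of negative and 100% = median of positive control wells; the first replicate is given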
MT1-MMP act inh = blocks activation of human MT1-MMP | GFP/RFP ratio change, % at 20 µM | 360,000 compounds, 0.061% hits | HT1080 RFP-PRO-GFP cells, GFP/RFP ratio fluorescence, overnight; percent of plate control window, DMSO zero;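 active means GFP/RFP ratio change of at least 30% with cell ATP level not reduced by more than half and red fluorescence within 50% of control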; further: strong numbers were not always called active
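Compound: 20 µM single dose, 1% DMSO / System: HT1080 RFP-PRO-GFP cells / Controls: DMSO and RFP-L50D-GFP cell wells / Read-out basis: GFP/RFP fluorescence ratio / Schedule: overnight compound exposure at 37 °C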
UUG fidelity = yeast start codon fidelity modulation; S. cerevisiae UUG-firefly luciferase reporter, luminescence/redox ratio; activity score, % at 18.7 µM; 350,000 compounds, 0.13% hits;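 active means replicate mean at a twofold rise or more, about +100% in these data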;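 further: firefly luciferase made from a UUG start codon reports start codon fidelity; reporter light over untreated wells divided by growth signal over untreated wells; some hits fall short of that in this replicate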
Rce1 inh = blocks yeast Ras-converting enzyme; yeast membranes, quenched prenylated peptide cleavage fluorescence; calls only; 290,000 compounds, 0.27% hits; Q03530;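 active means fall in fluorescence gain of 50% or more versus controls, with final raw signal at or below 3038400; inconclusive means same 50% fall but final raw signal above 3038400; inactive means fall in fluorescence gain under 50%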;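 further: plate controls were neutral control wells for no effect and wells lacking membranes for full effect; tested at 10 µM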
eIF4H FP inh = inhibitors of RNA binding by human eIF4H. 290,000 compounds, 0.94% hits. eIF4H fluorescence polarization binding assay. inhibition, % at 35 µM. Q15056. AID 2012;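 active means 50% or more with normal probe brightness, or confirmed in later tests; inconclusive means above 50% with abnormal brightness, or retests that disagree; inactive means below 50% or failed in later tests; about a fifth of its hits are not listed in these tables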;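 further: calls also rest on retests at 20 µM and on dose response follow-up; 0% = protein and probe with vehicle and 100% = probe without protein; strong numbers were not always called active; many hits fall short of the cut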
MT1-MMP act inh RFP = further read-out of MT1-MMP act inh, marked with its call; RFP signal change, %; measured here: RFP expression control read;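 0 = vehicle wells; hits needed this value within 50% of zero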
Starred values were filed as active, the others as inactive; i = inactive; ? = inconclusive; · = not tested or not shown; & = joins results of further samples. Compounds as they come; about 3% have a hit in one of these screens.

SMILES	Env fusion inh	PABP FP inh	CSC inhib	MT1-MMP act inh	MT1-MMP act inh RFP	UUG fidelity	Rce1 inh	eIF4H FP inh
CN(C)S(=O)(=O)c1ccc(C(=O)Nc2ccc(F)cc2F)cc1	-10	-5	-1	4	1	-14	i	13
C/C(=N\NC(=O)COc1ccc(C#N)cc1)c1ccccc1OC(F)F	14	0	-6	1	0	·	i	-7
COc1ccc(OC)c(NC(=O)c2ccc(CSc3ncccn3)cc2)c1	-12	8	11	0	0	·	i	-5
O=C(COC(=O)c1ccc(Cl)c(S(=O)(=O)N2CCCCCC2)c1)Nc1ccccc1	24	6	4	1	2	·	i	-7
COCCNC(=O)CN(c1ccc(F)cc1)S(=O)(=O)c1ccc2c(c1)OCCO2	-3	4	11	-2	2	30	i	3
O=C(O)c1cccnc1Oc1ccccc1	·	-4	3	4	4	-8	i	-5
COc1ccc(OCC(=O)Nn2c(-c3cccc(OC)c3)nc3ccccc3c2=O)cc1	-15	-2	-10	4	2	·	i	3
Cc1cc(Br)cn2cc(C(=O)O)nc12	15	-15	-15	-3	-2	·	i	-4
Cc1ccn2c(=O)nc(SCC(=O)NCc3ccco3)nc2c1	0	·	-5	-7	0	-13	i	·
C[C@H](CO)N1C[C@H](C)[C@@H](CN(C)C(=O)Nc2ccc(C(C)(C)C)cc2)OCc2cnnn2CCCC1=O	4	·	·	1	1	-3&1	·	·
CCn1c(CCNC(=O)c2ccc(Cl)c(Cl)c2)nnc1SCCOc1ccc(OC)cc1	-56	-10	-14	6	-9	-5	·	-1
O=C(NCc1ccccc1)C(c1cccnc1)N(C(=O)c1csnn1)c1ccc(F)cc1 (stereo unspecified)	-7	-4	-16	-3	3	-15	i	-16
Cc1cc(OCC(=O)Nc2ccc3oc(-c4ccncc4)nc3c2)ccc1Cl	-30	-21	-1	1	-7	-21	i	-13
O=S(=O)(NNc1ncc(C(F)(F)F)cc1Cl)c1ccccc1	2	·	·	-10	2	-7	·	·
Cc1ccc(-n2cc(CN(C)Cc3nccn3C)c(-c3ccc(F)cc3)n2)cc1	-62	4	8	-7	-8	6	i	1
CC(C)OC(=O)CSc1nnc(CNc2nc(-c3ccccc3)cs2)n1C	·	5	-10	2	1	-11	i	-13
COc1cc(-c2ccc3sc(-c4ccsc4)c(C#CCO)c3c2)cc(OC)c1OC	39	·	-17	0	-21	-14	·	·
CCN(c1ccc(OC)cc1)S(=O)(=O)c1cc(-c2cc(C)no2)ccc1C(C)C	25	21	13	-6	-12	·	i	-1
O=C(NCCc1ccncc1)C12CC3CC(CC(C3)C1)C2	-1	2	-7	4	3	-23	i	-1
O=C(Nc1ccc(Br)cn1)c1cccc(-c2cc3ccccc3oc2=O)c1	-26	10	?	0	1	-11	i	25
CC(C)CN1CCC1(C)C(=O)Nc1cc(-c2ccccc2)nn1C (stereo unspecified)	40	·	·	-1	0	-14	·	·
CCCN1CCN(CCCNC(=O)C(CC)n2nc(C)n3c(cc4occc43)c2=O)CC1 (stereo unspecified)	-6	4	-16	0	2	-2	i	7
N#Cc1cc2c(nc1SCC(O)CS(=O)(=O)Cc1ccccc1)CCCC2 (stereo unspecified)	·	-5	-22	4	-4	-10	i	-4
COc1ccccc1C(=O)Nc1nc2ccccc2s1	79*	19	105*	-1	-1	-92	i	-5
O=C(c1ccccc1Oc1ccc(C(F)(F)F)cc1[N+](=O)[O-])N1CCOCC1	-19	-10	-5	3	4	·	i	-5
C=CCC[C@@H](Cc1ccc(F)cc1)C(=O)OC[C@H](Cc1c[nH]c2ccccc12)NC(=O)[C@H](CC=C)CC(=O)NCCO	21	·	·	5	-3	1	·	·
CC(=O)Nc1ccc(-c2ccnc3c2CC(C(=O)NCCC(F)(F)F)O3)cc1 (stereo unspecified)	-22	·	·	-4	3	-13	·	·
N#CCSc1nc(Nc2ccc3c(c2)OCO3)c2ccccc2n1	·	8	-2	-10	-19	-10	i	-6
CC(=O)c1cn(CC(=O)Nc2ccccc2)c2ccccc12	33	-12	4	4	-18	-11	i	1
COc1ccc(NC(=O)Cn2nnc(-c3ccccc3F)n2)cc1Cl	27	2	-10	0	1	-14	i	-8
Cc1cc(-c2ccco2)n2c(nc3ccccc32)c1C#N	·	24	7	-20	-9	-10	i	13
Cc1cc(Cl)ccc1OCC(=O)Nc1ccccc1NS(=O)(=O)c1cccs1	10	15	1	3	-2	·	i	-4
O=C(NN=C1CCCCCCCCCCC1)c1ccncc1	-17	11	3	1	2	-15	i	6
C#CCOCCOCCOCCNc1nc(N2CCN(C(=O)CCCCCCCCCCNC(=O)[C@H]([C@@H](C)CC)n3cc(CCCCCN)nn3)CC2)nc(N2CCN(C(=O)CCCCCCCCCCNC(=O)[C@H]([C@@H](C)CC)n3cc(CCCCN=C(N)N)nn3)CC2)n1	·	·	-15	6	-4	-1	·	·
CC(/C=N/n1c(-c2cccnc2)n[nH]c1=S)=C\c1ccccc1	25	-9	1	-13	-8	-22	i	-11
Cc1ccc(S(=O)(=O)N2CCN(C)CC2c2ccccc2)cc1 (stereo unspecified)	-8	·	·	-2	-1	-7	·	·
CN(C)c1ccc(N=Nc2ccccc2Br)cc1	-153	-2	13	7	-2	-62	i	-3
CN(/N=C/c1ccc(Cl)cc1Cl)c1ncc(Cl)cc1C(F)(F)F	22	3	7	-3	0	-21	i	-6
COc1ccc(C(C#N)c2nc3ccccc3nc2Cl)cc1 (stereo unspecified)	4	0	6	-6	-8	-15	i	2
COCCCn1c(=O)/c(=C/c2ccccc2OC(C)C)s/c1=C(\C#N)C(=O)Nc1ccc(C(=O)O)cc1	11	·	·	-45	-5	-15	·	·
CC(NS(=O)(=O)c1ccc(Cl)cc1)C(=O)NCCC1=CCCCC1 (stereo unspecified)	17	-5	-28	1	-2	15	i	-1
CCCS(=O)(=O)C(=C1Nc2ccccc2N1)S(=O)(=O)CCC	-40	-3	11	-3	-1	-11	i	-4
O=C(Nc1ccc2c(c1)OCCO2)c1cccnc1Oc1ccccc1	2	3	-13	2	4	9	i	2
CCCCCCC1/C(=N/O)CCC1C(=O)OC (stereo unspecified)	·	-3	·	4	3	3	i	-7
COc1cccc(C(=O)N(Cc2cccs2)C2CCS(=O)(=O)C2)c1 (stereo unspecified)	12	-2	-17	-2	3	-9	i	-6
Cn1nc(C(F)(F)F)c(-c2ccccc2)c1NC(=O)CCC(=O)O	3	-4	-16	-1	3	-4	i	-15
S=c1c2c(nc3nc[nH]n13)CCC2	-3	9	-9	-1	2	·	i	2
Fc1ccc(CNC2CCN(Cc3ccccc3)CC2)cc1	-16	6	9	0	6	-2	i	-13
CSc1nsc(SC)c1NC(=O)OC1CCCCC1	-18	-10	15	1	-3	3	i	-2
Nc1nnc(-c2cccnc2)s1	-49	1&-4	-5	-2	3	-8	i	-5&-6
CCOC(=O)C1CCN(C(=O)COC(=O)c2cccc(F)c2)CC1	0	-16	2	4	1	·	i	2
O=C(CNC(=O)c1cccs1)OCC(=O)c1ccccc1	·	-4	·	3	6	-23	i	6
Cc1ccc(CNC(=O)C2CCCN(S(=O)(=O)N3CCC(C)CC3)C2)cc1 (stereo unspecified)	1	4	-9	0	-4	-15	i	-6
COc1ccc(C2=NN(c3ccccc3)C(c3cn(CCC(=O)O)nc3-c3ccccc3)C2)cc1 (stereo unspecified)	-10	5	-5	6	-1	·	?	4
C(=N\Nc1nc(Nc2ccccc2)nc(Nc2ccccc2)n1)/c1cccnc1	-7	6	·	3	-1	·	i	0
Cc1nn(C)c(C)c1CNC(=O)c1nn2c(c1Cl)NC(c1cccs1)CC2C(F)(F)F (stereo unspecified)	·	-2	-6	-1	-20	-20	i	0
CC(NCc1cccs1)C(=O)NC1CCCCC1 (stereo unspecified)	7	2	-14	-1	4	·	i	23
CC(C)(C)c1ccc(/C=C/C(=O)NCCCN2CCOCC2)cc1	7	-2	-14	5	0	0	i	41
O=C(CCc1nnc2ccc(N3CCC4(CC3)OCCO4)nn12)N1CCCCC1	-4	-6	18	-3	-2	-1	i	0
COc1cccc(CN2CCNC(=O)C2CC(=O)NC2CCCC2)c1OC (stereo unspecified)	-4	-14	0	-3	0	-15	i	11
O=[N+]([O-])c1cccc(CN2CCN(c3ncccn3)CC2)c1	2	3	-4	1	5	-6	i	-9
Cc1ccc(N(C(=O)c2ccc(S(=O)(=O)N3CCOCC3)cc2)C2C=CS(=O)(=O)C2)cc1C (stereo unspecified)	6	-3	1	-8	-1	·	i	-1
CC(C)CC(=O)N/N=C/c1c(N)n(C)c(=O)n(C)c1=O	-2	6	-2	-3	-1	·	i	-15
